Bead autofluor: flagged as autofluorescent in microsphere protease counterscreen | compound autofluorescence counterscreen, microsphere flow cytometry; stronger effect = higher value | fluorescence intensity (test concentration not listed) | 360,000 tested, 3.1% active;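 active = at least 3 SD above the mean of all compounds, about 16000 in these data; inconclusive = too few beads counted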;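 note: 100 nL of 1 mM stock went into each well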
RN4220 kill: S. aureus RN4220 growth inhibition | inhibition, % (test concentration not listed) | OD600, 16 h | AID 1259311 | 330,000 tested, 0.33% active;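 active = z-score of -3 or lower and OD600 up to 0.18 on both plates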;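 note: plate controls were untreated cells for no effect and reference antibiotic for full effect; stock transfer was 100 nL into about 80 µL; one replicate is shown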
Mtb hypoxia rep: Mtb hypoxia fluorescent reporter inhibition; M. tuberculosis hypoxia-regulated fluorescent reporter, fluorescence; fluorescence inhibition, % (test concentration not listed); 300,000 tested, 0.1% active;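 active = 35 to 45% if threefold the growth effect, above 45% if 1.5-fold the growth effect; inactive = the rest, general growth blockers included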;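 note: wells of about 50 µL received 100 nL stock; 0% = vehicle wells and 100% = reference inhibitor wells; whole bacteria with a GFP reporter of the hypoxia response; strong numbers were not always called active; many hits fall short of the cut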
ugtP null kill: growth inhibition of S. aureus ugtP deletion strain. S. aureus RN4220 ugtP deletion, OD600 growth, 16 h; some inactives read as strong as hits. growth inhibition, % (no concentration beside the values). 330,000 tested, 0.54% active;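 active = z-score under -3 and OD600 up to 0.15 on both plates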;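 note: plate controls were untreated wells for no effect and antibiotic for full effect; wells of about 80 µL received 100 nL stock; the first replicate is given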
PrP UTR inh: suppresses PrP 5' UTR mRNA reporter expression. cell-based PrP 5' UTR mRNA reporter, plate reader. inhibition, % (concentration not given with the values). 340,000 tested, 0.35% active. AID 488862;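 active = every replicate at 50% or more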;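 note: 0 = median of the neutral control wells; tested in H4 reporter cells; numbers are from one replicate; inactives centre near -14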
BJeLR lethal: BJeLR cell viability loss. BJeLR (HRASV12) viability, CellTiter-Glo ATP luminescence, 48 h; reference of the scale not given here. AID 1554. 300,000 tested, 0.17% active. inhibition, % (concentration not given with the values);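 active = replicate mean above 50%; inconclusive = above 50% but judged a plate artefact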;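 note: 50 nL library stock added to about 25 µL; numbers are from one replicate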
Mtb hypoxia rep growth: recorded beside Mtb hypoxia rep, whose call it bears; growth inhibition, %; measured here: M. tuberculosis growth (absorbance);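 0% = vehicle and 100% = reference antibiotic; read after six days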
The depositor's hits bear a star; ? = inconclusive; / = not tested or not shown.

SMILES | Bead autofluor | RN4220 kill | Mtb hypoxia rep | Mtb hypoxia rep growth | ugtP null kill | PrP UTR inh | BJeLR lethal
Cn1c(SCC(=O)Nc2ccc(N3CCOCC3)c(Cl)c2)nnc1-c1ccccc1 | / | 3.5 | 2 | 3 | 16 | / | 3
CCc1cccc(CC)c1NC(=O)Cn1c(-c2ccccc2Cl)nc2ccccc21 | 2589 | 7.8 | 7 | 2 | 6 | -6 | -18
CC1(C)Oc2ccc(C(=O)Nc3ccccc3)cc2N(CC#N)C1=O | 3556 | 5.2 | 9 | 7 | -4 | -32 | -11
O=C(CNc1ccccc1)N/N=C/c1c[nH]c2ccccc12 | 2671 | / | / | / | / | -26 | 3
Cc1cc(C)c(C)c(S(=O)(=O)N2CCN(CC(=O)Nc3sccc3C#N)CC2)c1C | 9575 | 2.9 | -1 | 3 | 8 | -12 | -6
C[C@@]12CCC3[C@@](CCC4[C@@]3(C)CCC[C@@]4(C)C(=O)NCc3ccccc3)(CC1=O)C2 (stereo partly specified) | 4293 | 10 | 14 | 16 | 4 | -34 | /
COc1nc(NC(C)C)nc(NC(C)C)n1 | 3083 | 4.0 | -11 | -3 | -1 | -5 | 3
c1ccc(CSc2ncn[nH]2)nc1 | 3559 | 1.5 | 4 | 10 | 1 | -3 | -4
FC(F)(F)c1nnc2ccc(NCn3nnc4ccccc43)nn12 | 3524 | -1.8 | / | / | -8 | -10 | 9
Cn1c(C(=O)Nc2ccccc2)cc2sccc21 | 4119 | 7.5 | 5 | 3 | -4 | -63 | -10
Cc1cccc(OCC(=O)Nc2cc(C)ccc2O)c1 | 3275 | 11 | 2 | 4 | -10 | -18 | 6
NS(=O)(=O)c1ccc(NC(=O)CSc2ccccc2)cc1 | 2502 | 6.3 | 12 | 12 | 4 | -16 | 6
CCOC(=O)N1CCC(N2C(=O)c3ccccc3C2Nc2ccc(C)cc2)CC1 (stereo unspecified) | 6580 | -7.6 | 5 | 3 | -1 | -41 | -6
O=C(/C=C/c1ccccc1[N+](=O)[O-])N1CCN(c2ccc(F)cc2)CC1 | 2263 | 2.1 | 8 | 4 | 0 | -6 | 1
CCCc1cc(=O)c2c(O)cccc2o1 | 5870 | 0.5 | 4 | 19 | 2 | -18 | 5
O=C(OCC(=O)N1CCC(Cc2ccccc2)CC1)c1cc(Br)ccc1O | 3766 | 3.9 | 13 | 11 | 8 | -6 | /
Cc1ccc(Cl)cc1NC(=S)N(CCCN1CCOCC1)Cc1ccco1 | 3328 | 2.7 | 7 | 4 | 2 | 0 | 0
CN(C(=O)c1cccc(NC(=O)Cc2cccc(NC(=O)C3CCN(C(=O)CCc4ccccc4)CC3)c2)c1)C1CC1 | 3562 | 5.8 | -2 | 8 | -5 | -13 | /
CCOC(=O)CCc1c(C)c2ccc(OCc3nn[nH]n3)cc2oc1=O | 8696 | 2.1 | 2 | 1 | 0 | -9 | -12
COc1cc(Cl)cc(C2NC(=O)NC(C)=C2C(C)=O)c1OCC(=O)O (stereo unspecified) | 16937* | 5.7 | 2 | 0 | 7 | -8 | 0
CCOc1ccc2ccccc2c1CNCCN1CCOCC1 | 9029 | -0.1 | -1 | 7 | -2 | 6 | 5
Nc1nc2c(s1)CCc1c-2cnn1-c1ccccc1 | 2931 | / | / | / | / | -129 | -11
COc1cccc(Nc2nnc(SCn3nnc4ccccc4c3=O)s2)c1 | 9452 | 2.6 | 7 | 1 | 2 | -26 | -11
COC(=O)c1ccc(NC(=O)CSc2nccn2CCc2ccccc2)cc1 | 4679 | 2.2 | 9 | 14 | 2 | -33 | 14
O=C(Nc1ccccc1F)C1CCCN1S(=O)(=O)c1ccc(Cl)cc1 (stereo unspecified) | 5484 | 2.8 | 9 | 3 | 3 | -13 | /
Cc1ccc(S(=O)(=O)C2(C(=O)Nc3ccc(Br)cc3)CC2)cc1 | 2588 | 8.5 | 18 | 3 | 5 | -12 | 5
O=C(CCc1ccccc1)Nc1ccccc1OC(=O)c1ccccc1 | 3695 | 7.5 | 16 | 19 | 6 | -40 | /
Cc1[nH]n(-c2ccc(Cl)cc2)c(=O)c1/C=N/c1nnc(-c2ccccc2)s1 | 2409 | / | / | / | / | -31 | 8
CC(C)N(CC(N)=O)C(=O)c1sc2cc(F)ccc2c1Cl | ? | 3.2 | -2 | -3 | -2 | -22 | 1
COc1ccc(NC(=O)c2sccc2SCc2cccc(C(F)(F)F)c2)cc1 | 8053 | 10 | 7 | 3 | -12 | 0 | -6
COC(=O)NC(=S)N1CCOCC1 | 9773 | 1.7 | 2 | 3 | 8 | -11 | -5
CCOc1ccc(NC(=O)COC(=O)CCCc2c[nH]c3ccccc23)cc1 | 10858 | 0.0 | 5 | 7 | 4 | -24 | 3
O=C(NCc1ccccn1)NC12CC3CC(CC(C3)C1)C2 | 9124 | 3.7 | 14 | 19 | 2 | -19 | -6
COc1cc(SC)ccc1C(=O)N1CCN(c2ccccc2F)CC1 | 3316 | 2.8 | 4 | 7 | 0 | -11 | 5
S=c1[nH]nc(Cc2ccccc2)n1Cc1ccco1 | 15057 | 0.4 | 0 | 1 | -10 | -4 | 6
Cn1c(=O)c2c(nc3sccn32)n(C)c1=O | ? | 7.1 | -3 | -4 | 11 | -16 | 9
Cn1c(SCC(=O)N2CCOCC2)nnc1-c1ccccc1 | 8804 | -0.8 | -6 | 5 | -4 | -42 | -1
O=C(Cc1ccc(S(=O)(=O)N2CCCC2)s1)N1CCOCC1 | 3900 | -0.6 | / | / | -7 | -11 | -9
CCCCc1ccc(S(=O)(=O)Nc2ccc(C)c(NS(C)(=O)=O)c2)cc1 | 4348 | 6.8 | 15 | 12 | 13 | -18 | -2
Cc1ccc2nc(SC(C)C(=O)Nc3cccc([N+](=O)[O-])c3)[nH]c2c1 (stereo unspecified) | 7403 | -3.5 | 1 | 24 | -29 | -23 | 5

Quoted at random: 6 compounds from above
SMILES | Bead autofluor | RN4220 kill | Mtb hypoxia rep | Mtb hypoxia rep growth | ugtP null kill | PrP UTR inh | BJeLR lethal
CCOc1ccc(NC(=O)COC(=O)CCCc2c[nH]c3ccccc23)cc1 | 10858 | 0.0 | 5 | 7 | 4 | -24 | 3
COC(=O)NC(=S)N1CCOCC1 | 9773 | 1.7 | 2 | 3 | 8 | -11 | -5
COc1cccc(Nc2nnc(SCn3nnc4ccccc4c3=O)s2)c1 | 9452 | 2.6 | 7 | 1 | 2 | -26 | -11
COc1cc(SC)ccc1C(=O)N1CCN(c2ccccc2F)CC1 | 3316 | 2.8 | 4 | 7 | 0 | -11 | 5
O=C(NCc1ccccn1)NC12CC3CC(CC(C3)C1)C2 | 9124 | 3.7 | 14 | 19 | 2 | -19 | -6
Cc1ccc(S(=O)(=O)C2(C(=O)Nc3ccc(Br)cc3)CC2)cc1 | 2588 | 8.5 | 18 | 3 | 5 | -12 | 5

The list continues.
SMILES | Bead autofluor | RN4220 kill | Mtb hypoxia rep | Mtb hypoxia rep growth | ugtP null kill | PrP UTR inh | BJeLR lethal
Cc1cccc(C)c1NC(=O)NN1C(C)CCCC1C (stereo unspecified) | 3158 | 7.0 | 3 | -1 | 9 | -14 | 6
CC(C)NC(=O)c1ccc2c(c1)N(CC(=O)N1CCCC1)C(=O)C(C)(C)O2 | 3702 | / | / | / | / | -16 | -2
Cc1cc(C)nc(NC2=NCCN2C(=S)Nc2ccc(C)c(C)c2)n1 | / | 0.4 | 1 | -7 | 9 | -24 | 5
Cc1ccc(Sc2ncccc2C(=O)O)c(C)c1 | 2416 | 4.8 | 14 | 9 | 6 | -13 | -1
Cc1ccc(NC(=O)CNC(=O)c2ccco2)c(Cl)c1 | 3663 | 6.3 | 16 | 5 | 7 | -17 | -5
COc1ccc(C(C)=O)cc1CN(c1ccccc1OC)S(=O)(=O)c1cccs1 | 5768 | 1.4 | 16 | 5 | 3 | -7 | 1
Cc1ccc(C(=O)N/C(=C\c2cccc([N+](=O)[O-])c2)C(=O)Nc2cccc(C(=O)O)c2)cc1 | 3886 | 1.0 | 6 | 0 | 1 | -21 | 8
O=C(O)c1ccc(NC(=S)NC(=O)c2cccc(COc3ccccc3)c2)cc1 | 4493 | 26 | 0 | 3 | 21 | -30 | -3
COc1ccc(Cl)cc1S(=O)(=O)N1CCCC(C(=O)NCc2ccncc2)C1 (stereo unspecified) | / | 0.6 | 1 | -5 | 4 | -5 | 7
Cc1nc(N2CCN(c3ccccc3)CC2)nc2c1C(=O)CCC2 | 22851* | 9.5 | 10 | 5 | 1 | -52 | 0
CCc1n[nH]c(=S)n1N=Cc1ccc(N(CC)CC)cc1 | / | -5.8 | -5 | 13 | 1 | / | /
Cc1cccc(Oc2ncc(-c3ccc(Cl)cc3)cn2)c1C | 2411 | -2.6 | / | / | 16 | -15 | -6
COC(=O)CNc1cc(S(=O)(=O)N2CCCCC2)ccc1Oc1cccc(C)c1 | 4594 | -0.6 | 10 | -4 | -2 | -9 | 1
CC(C)(C)C(=O)Nc1ccc(N2CCN(c3ccc(C(F)(F)F)cn3)CC2)nc1 | 5513 | 1.6 | 12 | 7 | 3 | -22 | -5
Oc1c(Cl)cc(Oc2cc(Cl)c(O)c(CN3CCOCC3)c2)cc1CN1CCOCC1 | 4245 | 1.8 | 21 | 10 | 18 | -40 | /
CC(=NNC(=S)NCc1ccccc1)c1ccccc1 | / | 0.6 | -5 | -5 | 0 | / | /
O=C(O)C/C(=C\c1cc2c(cc1Br)OCO2)c1nc2ccccc2s1 | 3156 | 16 | -7 | -4 | -22 | 6 | -3
Cc1[nH]c2ccc(C(=O)OC(C)C(=O)NC3CCCCC3C)cc2c1C (stereo unspecified) | / | 6.2 | 2 | 2 | -9 | -4 | /
COC(=O)c1[nH]c(=O)c2ccccc2c1O | 4871 | -0.5 | / | / | 1 | -11 | 0
O=C(c1ccc(CS(=O)(=O)c2ccccc2)o1)N1CCOCC1 | 4168 | 1.4 | / | / | 6 | -11 | -1
CN(C)CCN(C(=O)C1=COCCO1)c1nc2ccc(F)cc2s1 | 4863 | -2.3 | 1 | -1 | -1 | -28 | -2
CCOc1ccc(S(=O)(=O)Nc2cc(S(=O)(=O)N(CC)CC)ccc2N2CCCC2)cc1 | 1936 | 8.7 | 1 | 5 | -3 | -10 | -12
COc1ccc(C(=O)NC(=Cc2ccccc2)C(=O)NC(CC(C)C)C(=O)O)cc1 (stereo unspecified) | / | 3.4 | 4 | -6 | -6 | / | /
Cc1ccc(CNC(=O)CN(C)C2=NS(=O)(=O)c3ccccc32)cc1 | 6840 | -1.4 | 4 | 0 | 9 | -5 | /
O=C(CCc1nc(-c2ccccc2)no1)Nc1cc(C(F)(F)F)ccc1Cl | 3887 | 1.5 | 0 | 7 | -6 | -23 | -9
COc1ccc(C(=O)NCCNC(=O)c2ccccn2)cc1 | 6152 | 2.7 | -5 | 2 | 2 | 3 | -5
CCOc1ccc(NC(=O)Cc2nnc(SCC(=O)N3CCOCC3)n2C)cc1 | 6049 | 2.9 | 7 | 0 | 9 | -6 | -6
COc1ccc(/C=N\NC(=O)/C(=C\Nc2nccc(C)n2)NC(=O)c2ccccc2)cc1 | 3126 | / | / | / | / | -20 | -12
CO/N=C/C1C(=O)NN=C1c1ccccc1 (stereo unspecified) | 2575 | / | / | / | / | -17 | -1
Cc1ccc(O)c(C(CC(=O)NC(C)C)c2ccccc2)c1 (stereo unspecified) | 3180 | 10 | 0 | 1 | 8 | -7 | 4
CCN(CC)c1ccc(C=NNC(=O)C(O)c2ccccc2)cc1 (stereo unspecified) | / | 7.1 | 7 | 9 | 7 | / | /
CC(C)Nc1nc2nonc2nc1Nc1ccccc1 | 4704 | 4.0 | 9 | -1 | -18 | -18 | 2
O=C(Nc1ccc2c(c1)CCCN2C(=O)c1cccs1)c1c(F)cccc1Cl | 5824 | -1.5 | -15 | -3 | -4 | 6 | 14
CCc1nc2sc3c(=O)[nH]cnc3c2c2c1CSC(C)(C)C2 | 3254 | 2.2 | 4 | 18 | 15 | / | -3
COc1ccc(/C=N\NC(=O)COc2ccc(C(C)(C)C)cc2)cc1Cn1nc(C)cc1C | 3547 | / | / | / | / | -7 | -5
Cc1onc(-c2ccccc2Cl)c1C(=O)N1CCN=C1SCc1cccnc1 | 3033 | 3.4 | / | / | 3 | -9 | 6
COc1ccc(-c2ocnc2C(=O)Nc2ccccc2N2CCCCC2)cc1 | 4025 | -3.2 | / | / | 8 | -8 | 3

Screens from PubChem.
